Screening results as filed in PubChem BioAssay.
MT1-MMP act inh: blockers of MT1-MMP proenzyme processing, primary screen, HT1080 RFP-PRO-GFP cells, GFP/RFP fluorescence | AID 651647, 2012 | GFP/RFP ratio fluorescence, overnight; percent of plate control window, DMSO zero | GFP/RFP ratio change, % at 20 µM | 360,000 compounds, 0.061% hits | Matrix metalloproteinase-14 (Homo sapiens), P50281;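 active = GFP/RFP ratio change of at least 30% with cell ATP level not reduced by more than half and red fluorescence within 50% of control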; note: strong numbers were not always called active
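Material – HT1080 RFP-PRO-GFP cells · Control set – DMSO wells and RFP-L50D-GFP cells · Incubation – overnight cell settling, then overnight compound exposure, 37 °C, 5% CO2 · Compound dosing – single-point 20 µM compound, 1% DMSO · Read-out – GFP/RFP fluorescence ratio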
eIF4H FP inh: human eIF4H binding inhibitors, primary screen, translation initiation inhibitor project, biochemical, uHTS, fluorescence polarization. Eukaryotic translation initiation factor 4H (Homo sapiens), Q15056. eIF4H fluorescence polarization binding assay. inhibition, % at 35 µM. 290,000 compounds, 0.94% hits;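 active = 50% or more with normal probe brightness, or confirmed in later tests; about a fifth of its hits are not listed in these tables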;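 note: calls also rest on retests at 20 µM and on dose response follow-up; 0% = protein and probe with vehicle and 100% = probe without protein; strong numbers were not always called active; many hits fall short of the cut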
PABP polyA inh: PABP poly(A) RNA binding inhibitors, primary screen, biochemical, fluorescence polarization, uHTS; AID 2014, 2009; Polyadenylate-binding protein 1 (Homo sapiens), P11940; inhibition, % at 35 µM; 290,000 compounds, 1% hits;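 active = 50% or more with normal probe brightness, or confirmed in later tests; about a fifth of its hits are not listed in these tables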;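 note: calls also rest on retests at 20 µM and on dose response follow-up; controls were probe without protein and protein plus probe with vehicle; some compounds called inactive have numbers as strong as hits; many hits fall short of the cut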
Target sequence (P11940 whole entry, looked up): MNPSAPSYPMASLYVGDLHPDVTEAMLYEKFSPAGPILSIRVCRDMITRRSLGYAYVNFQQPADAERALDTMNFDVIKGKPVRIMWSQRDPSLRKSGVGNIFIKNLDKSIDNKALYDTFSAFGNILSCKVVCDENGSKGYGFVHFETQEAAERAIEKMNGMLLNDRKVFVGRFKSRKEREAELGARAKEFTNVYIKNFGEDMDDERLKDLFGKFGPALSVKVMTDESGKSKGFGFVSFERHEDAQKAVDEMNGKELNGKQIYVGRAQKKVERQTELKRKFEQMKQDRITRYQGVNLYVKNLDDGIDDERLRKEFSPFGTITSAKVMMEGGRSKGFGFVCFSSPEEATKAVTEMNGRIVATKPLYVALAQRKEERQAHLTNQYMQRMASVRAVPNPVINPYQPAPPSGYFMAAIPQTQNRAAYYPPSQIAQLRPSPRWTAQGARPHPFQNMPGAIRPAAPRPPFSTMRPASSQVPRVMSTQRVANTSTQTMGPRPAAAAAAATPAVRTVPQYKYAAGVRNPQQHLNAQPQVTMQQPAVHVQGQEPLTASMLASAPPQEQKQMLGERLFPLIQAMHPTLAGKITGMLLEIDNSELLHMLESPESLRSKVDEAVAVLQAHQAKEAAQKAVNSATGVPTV
CSC inhib: cancer stem cell viability inhibitors, primary screen, luminescence | cancer stem cell-like cells viability | inhibition, % at 7.5 µM | 300,000 compounds, 1.1% hits;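 active = mean at 75% or more and at least half the replicates too; tested in HMLE shEcad cells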;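 note: 0% = median of negative and 100% = median of positive control wells; the first replicate is given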
HIV Env fusion: inhibitors of HIV-1 Env-driven cell-cell fusion, primary screen, HeLa-JRFL effector, CEM21 target cells, luciferase | inhibition, % at 12.3 µM | 360,000 compounds, 1.1% hits | AID 651610, 2012;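 active = mean replicate inhibition score of at least 50 and every replicate individually at or above 50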;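 note: 0% = plate neutral controls and 100% = maraviroc near 300 nM; one replicate is shown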
Rce1 inhib: yeast Rce1p protease inhibitors, primary screen, biochemical, fluorescence, cell-free homogeneous; yeast membranes, quenched prenylated peptide cleavage fluorescence; AID 2563, 2010; calls only; 290,000 compounds, 0.27% hits; CAAX prenyl protease 2 (Saccharomyces cerevisiae (strain ATCC 204508 / S288c)), Q03530;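 active = fall in fluorescence gain of 50% or more versus controls, with final raw signal at or below 3038400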;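 note: plate controls were neutral control wells for no effect and wells lacking membranes for full effect; tested at 10 µM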
Target sequence (Q03530 whole entry, looked up): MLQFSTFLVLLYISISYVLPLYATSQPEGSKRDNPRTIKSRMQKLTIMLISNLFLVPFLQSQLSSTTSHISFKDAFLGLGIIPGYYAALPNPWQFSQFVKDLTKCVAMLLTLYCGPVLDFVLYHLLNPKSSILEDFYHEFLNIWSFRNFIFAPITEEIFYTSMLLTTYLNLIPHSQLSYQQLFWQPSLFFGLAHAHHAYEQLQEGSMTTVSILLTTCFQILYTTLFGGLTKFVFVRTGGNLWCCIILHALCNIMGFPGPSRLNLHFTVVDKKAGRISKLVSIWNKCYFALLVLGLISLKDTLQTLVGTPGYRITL
Yeast UUG start: modulators of yeast start codon fidelity, primary screen, whole organism, S. cerevisiae, single point, plate reader | S. cerevisiae UUG-firefly luciferase reporter, luminescence/redox ratio | 350,000 compounds, 0.13% hits | activity score, % at 18.7 µM;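 active = replicate mean at a twofold rise or more, about +100% in these data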;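 note: firefly luciferase made from a UUG start codon reports start codon fidelity; reporter light over untreated wells divided by growth signal over untreated wells; some hits fall short of that in this replicate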
MT1-MMP act inh RFP: recorded beside MT1-MMP act inh, whose call it bears; RFP signal change, %; measured here: RFP expression control read;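 0 = vehicle wells; hits needed this value within 50% of zero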
Numbers without * were called inactive; i = inactive; / = not tested or not shown; & = joins results of further samples. A portion of the library. The share of hits here may be higher or lower than overall.

SMILES	MT1-MMP act inh	MT1-MMP act inh RFP	eIF4H FP inh	PABP polyA inh	CSC inhib	HIV Env fusion	Rce1 inhib	Yeast UUG start
Cc1cccc(OCCC(=O)OCC(=O)Nc2c(C)nn(-c3ccccc3)c2C)c1	3	1	/	/	-9	12	i	-2
CC1(C)CC(=O)C(N=Nc2c(F)cccc2F)=C(O)C1	1	-1	-5	4	-11	-1	i	-19
CCCc1c(C(=O)Nc2ccc(F)cc2F)cnn1-c1ccccc1	3	0	-2	-4	-10	12	i	/
C=CCn1c(=NC(=O)c2ccc(S(=O)(=O)N3CCCC3)cc2)sc2cc(NC(C)=O)ccc21	-4	-6	-9	1	22	/	i	0
COc1ccc(CN2CCN(c3ncccn3)CC2)c(C)c1C	-1	2	9	11	-7	1	i	5
COc1ccccc1NCCC(=O)OCC(=O)Nc1cccc(S(=O)(=O)N(C)C)c1	3	2	/	/	-18	/	/	-11
CC1(C2CC2)NC(=O)N(CC(=O)NCc2ccc(Cl)cc2Cl)C1=O (stereo not given)	2	5	/	/	/	-1	/	-6
CCCCCN=Cc1c(C)[nH]n(-c2nc3ccccc3s2)c1=O	5	0	-3	0	-18	-35	i	-37
CC(C)CN1C(=O)c2ccc(C(=O)Nc3ccc(OCC(=O)O)cc3)cc2C1=O	0	1	-8	-5	9	5	i	-7
Cc1ccc(-c2nnc(SCC(=O)N/N=C/c3ccccc3C(=O)O)n2-c2ccc(C)cc2)cc1	-3	3	-8	8	-4	-6	i	-23
Cc1c(/C=N/NC(=O)c2ccc(Br)o2)cnn1C	-2	5	-2	-3	-20	7	i	-28
O=C(NC1CCCCC1)c1ccc(-c2ccc(Cl)cc2)o1	2	-3	/	/	35	-69	i	-18
O=C(Nc1ccccc1)c1ccc(NCC2CCCO2)c([N+](=O)[O-])c1 (stereo not given)	8	6	-3	7	5	-40	i	-10
O=C(COC(=O)CCc1ccccc1)Nc1ccccc1OC(F)F	-1	1	-1	-4	-5	-9	i	/
CCCc1nnc(SCC(=O)N2CCOCC2)n1CC1CCCO1 (stereo not given)	0	-1	-6	1	-2	3	i	/
CCC(C)/C(C)=N/NC(=O)c1ccc(CSc2nc3ccccc3s2)cc1 (stereo not given)	0	-19	-6	14	0	/	i	-20
CCOC(=O)CSc1nc(N)c(C#N)cc1C#N	0	4	10	-2	-1	-12	i	/
O=C(CN1CCN(Cc2ccccc2Cl)CC1)N=Nc1c(O)[nH]c2ccccc12	-4	-3	-12	-19	24	20	i	-9
Cc1ccc(C(C(=O)NC2CCCC2)N2CCc3ccccc32)cc1 (stereo not given)	-5	-1	-2	4	-7	-18	i	-11
C/C(=N\OCC(=O)Nn1c(C)nc2ccccc2c1=O)c1cccs1	2	-1	2	-2	-7	-4	i	/
N/C(Cc1ccc(Cl)cc1Cl)=N\OC(=O)c1ccc(Br)o1	1	7	4	3	0	-5	i	1
COc1ccccc1-c1nnc(SCC(=O)NC2CCCCC2)o1	6	5	-3	-4	/	10	i	-14
O=C(CCN1C(=O)[C@@H]2Cc3ccccc3CN2C1=O)N[C@@H](C(=O)O)c1ccccc1	0	0	14	-4	-5	/	i	-2
CN(C)C(=O)CCC(=O)N1CCCC(C(=O)c2ccc3c4c(cccc24)CC3)C1 (stereo not given)	2	-1	-2	8	5	80*	i	-3
CC1CCC(NC(=O)COC(=O)CSc2ccc(C(N)=O)cc2[N+](=O)[O-])CC1 (stereo not given)	4	1	/	/	-3	-1	i	/
Cc1ccc(S(=O)(=O)N2CCc3ccccc3C2CN2C(=O)c3ccccc3C2=O)cc1 (stereo not given)	-15	-9	-4	-14	2	/	i	-10
O=C(c1cccs1)N1CCC(c2nc3c(nnn3Cc3ccccc3Cl)c(=O)[nH]2)CC1	-3	-4	11	-5	-5	4	i	-2
CCN(CC(=O)NC(=O)NC1CCCCC1)Cc1ccccc1	2	-1	/	/	3	i	i	-25
CC(OC(=O)C1CC(=O)N(Cc2ccco2)C1)C(=O)Nc1ccccc1[N+](=O)[O-] (stereo not given)	-4	1	/	/	-9	-3	/	-13
Cc1cccc(NC(=O)N(Cc2cc3cc(C)cc(C)c3[nH]c2=O)CC2COCCO2)c1 (stereo not given)	-4	-2	-1	0	11	-30	i	0
CCC(=O)NC(=S)Nc1ccc(NC(=O)c2ccco2)c(Cl)c1	0	0	0	-4	-3	3	i	/
Cc1nc(N=C(N)N)nc2c(C)cccc12	-27	-14	-1	4	25	-19	i	/
O=C(CSc1ncnc2c1cnn2-c1ccc(F)cc1)NCc1ccc2c(c1)OCO2	1	-13	4	11	9	/	i	-22
CCOC(=O)C(C)(C)n1nnc(-c2ccc([N+](=O)[O-])cc2)n1	-2	-5	5	6	-2	29	i	/
O=c1nccc(N/N=C/c2cccc(O)c2)[nH]1	1	6	4	4	-11	12	i	-32
O=CNc1ccc2c(c1)Cc1cccc(NC=O)c1-2	4	3	/	/	/	-112	/	6
CC1(C)CC(=O)C=C(c2ccc(COC(=O)C(c3ccccc3)c3ccccc3)cc2)C1=O	-1	-10	/	/	/	23	/	-6
CCOC(=O)c1sc2ncnc(OC)c2c1C	2	9	5	3	19	-295	i	6
COc1ccccc1N1CCN(C(=O)c2cc(-c3cccc(Cl)c3)on2)CC1	1	4	-5	-10	12	19	i	3
COc1ccc(N(CC(=O)NCCSc2ccc(C)cc2)S(=O)(=O)c2ccccc2)c(OC)c1	-4	-4	-8	12	/	37	i	-8
Cc1ccc2c(c1)N(CC(=O)N1CCC(C)CC1)C(=O)c1cccnc1O2	1	2	-17	-1	-7	5	i	15
CC(=O)Nc1cc(-c2ccc(S(C)(=O)=O)cc2)cn2c(-c3ccc(F)cc3)cnc12	-14	-3	/	/	/	-9	/	-9
CCOC(=O)C1=C(C)NC(C)=C(C(=O)OCC)C1C(=O)OCC(=O)NC(C)C	-2&8	4&0	-10	-3	-6	26	i	-15
CC(Oc1ccc(Cl)cc1Cl)c1ccnc2nc(N3CCOCC3)nn12 (stereo not given)	0	-11	-1	1	-6	28	i	11
Cc1ccc(OCCNc2cc(N3CCN(CCO)CC3)ccc2[N+](=O)[O-])cc1C	2	3	-9	4	/	25	i	/
Cc1ccc(S(=O)(=O)CC(=O)N2CCN(c3ccc(F)cc3)CC2)cc1	-4	-3	-14	-9	-3	/	i	-9
COc1ccc(NC(=O)c2cc(C3CCCCN3C(=O)c3cccs3)on2)c(C)c1 (stereo not given)	0	-6	/	/	/	3	/	3
Cc1ccccc1C(C(=O)NCc1ccco1)N(CC1CCCO1)C(=O)Cn1nnc2ccccc21 (stereo not given)	-3	-1	2	-1	-15	/	i	2
COc1cc(S(=O)(=O)NC2CCCCC2C)ccc1F (stereo not given)	2	-2	6	16	-1	2	i	5
Nc1ccn(CCCN2CCN(C(=O)C3CC3)CC2)c(=O)n1	0	2	/	/	/	-126	/	-8
Cc1cccc(Nc2nc(NCc3ccco3)nc(N3CCOCC3)n2)c1	-7	-13	-9	-13	-3	47	i	-12
COc1ccc(Oc2coc3c(CN4CCOCC4)c(O)ccc3c2=O)cc1	8	-3	2	3	3	5	/	-10
O=C(O)c1ccc(-c2ncc[nH]2)cc1	1	9	12	4	14	-17	i	4
Cc1ccc(S(=O)(=O)C(C)C(=O)c2ccc3c(c2)OCCO3)cc1 (stereo not given)	0	-3	4	-1	-6	-133	i	-10
Cc1ccc(-c2nc3cccnc3s2)cc1NS(=O)(=O)c1cccs1	3	5	1	2	17	-54	i	0
CCc1cc2c(=O)[nH]c(COC)nc2s1	3	7	7	6	-14	20	i	/
Cc1cc(C)nc(NCc2ccc(Cl)cc2)n1	-2	-1	-6	-3	13	-23	i	-14
CCC(=O)Nc1cccc2c1C(=O)N(C)C2=O	-1	3	-5	11	/	-49	i	-17
Cc1cnc(C(=O)N2CCCC(N3CCN(c4cccc(C(F)(F)F)c4)CC3)C2)cn1 (stereo not given)	0	-1	-10	1	10	-252	i	-3
Cc1nc(=O)c(-c2ccccc2)c(C)n1CCCCCC(=O)O	1	3	-3	3	/	/	i	-16

5 entries from above, with values under each structure:
Sequence of screens: MT1-MMP act inh	MT1-MMP act inh RFP	eIF4H FP inh	PABP polyA inh	CSC inhib	HIV Env fusion	Rce1 inhib	Yeast UUG start
Cc1cnc(C(=O)N2CCCC(N3CCN(c4cccc(C(F)(F)F)c4)CC3)C2)cn1 (stereo not given)
→ 0	-1	-10	1	10	-252	i	-3
Cc1ccccc1C(C(=O)NCc1ccco1)N(CC1CCCO1)C(=O)Cn1nnc2ccccc21 (stereo not given)
→ -3	-1	2	-1	-15	/	i	2
Cc1cc(C)nc(NCc2ccc(Cl)cc2)n1
→ -2	-1	-6	-3	13	-23	i	-14
Cc1ccc(S(=O)(=O)C(C)C(=O)c2ccc3c(c2)OCCO3)cc1 (stereo not given)
→ 0	-3	4	-1	-6	-133	i	-10
Nc1ccn(CCCN2CCN(C(=O)C3CC3)CC2)c(=O)n1
→ 0	2	/	/	/	-126	/	-8

Part of the list above in order of formula weight, low to high:
SMILES	MT1-MMP act inh	MT1-MMP act inh RFP	eIF4H FP inh	PABP polyA inh	CSC inhib	HIV Env fusion	Rce1 inhib	Yeast UUG start
CCC(=O)Nc1cccc2c1C(=O)N(C)C2=O	-1	3	-5	11	/	-49	i	-17
O=C(NC1CCCCC1)c1ccc(-c2ccc(Cl)cc2)o1	2	-3	/	/	35	-69	i	-18
CCCc1c(C(=O)Nc2ccc(F)cc2F)cnn1-c1ccccc1	3	0	-2	-4	-10	12	i	/
Cc1ccc(S(=O)(=O)C(C)C(=O)c2ccc3c(c2)OCCO3)cc1 (stereo not given)	0	-3	4	-1	-6	-133	i	-10
N/C(Cc1ccc(Cl)cc1Cl)=N\OC(=O)c1ccc(Br)o1	1	7	4	3	0	-5	i	1
COc1ccc(NC(=O)c2cc(C3CCCCN3C(=O)c3cccs3)on2)c(C)c1 (stereo not given)	0	-6	/	/	/	3	/	3

The results go on:
SMILES	MT1-MMP act inh	MT1-MMP act inh RFP	eIF4H FP inh	PABP polyA inh	CSC inhib	HIV Env fusion	Rce1 inhib	Yeast UUG start
O=[N+]([O-])c1ccc(NC(=S)N2CCN(S(=O)(=O)c3ccccc3)CC2)cc1	0	-1	-5	10	-2	20	i	-15
C=CCn1cc(-c2cccc(C(F)(F)F)c2)cc(C#N)c1=O	7	6	-4	30	-16	-16	i	-12
COC(=O)N1CCCCC1c1cc(C(=O)NCc2ccccc2)no1 (stereo not given)	-2	2	/	/	/	1	/	5
CCOC(=O)C(NC(=O)NC1CCCCC1)(c1ccccc1)C(F)(F)F (stereo not given)	1	-2	-8	18	6	-2	i	-20
